Cruzain inh noDet = qHTS Assay for Promiscuous and Specific Inhibitors of Cruzain (without detergent). Cruzipain (Trypanosoma cruzi), P25779. purified cruzain, Z-FR-AMC fluorescence, no detergent. Potency, µM, inactives show max response, negative = inhibition, most hits filed as inhibitors. 200,000 tested, 2.3% active. AID 1476, 2009; active = well fitted curve in the direction sought with a large enough effect; inconclusive = small, poorly fitted or top-dose-only effect, or another doubt; inactive = no such curve, though single readings can be large; an effect the other way counts as inactive or inconclusive;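 also: plate controls were enzyme without inhibitor for no effect and buffer without enzyme for full effect; nearly all actives have a fitted effect of over 40% in size; top concentration of the series not given in the record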
Target sequence (P25779 123-467 limits assumed): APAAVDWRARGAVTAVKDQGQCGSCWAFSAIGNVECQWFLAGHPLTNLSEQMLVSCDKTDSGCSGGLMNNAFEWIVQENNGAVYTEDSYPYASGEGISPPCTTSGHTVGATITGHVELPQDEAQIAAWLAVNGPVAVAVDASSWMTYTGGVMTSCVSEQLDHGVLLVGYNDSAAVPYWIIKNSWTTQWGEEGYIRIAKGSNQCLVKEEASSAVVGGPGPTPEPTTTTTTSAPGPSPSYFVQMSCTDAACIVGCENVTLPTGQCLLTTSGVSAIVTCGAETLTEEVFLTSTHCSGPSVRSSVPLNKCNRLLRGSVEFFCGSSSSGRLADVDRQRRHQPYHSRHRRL
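Purified cruzain at 1.5 nM, pre-incubated 15 min with compound at room temperature in 100 mM sodium acetate pH 5.5, 5 mM DTT, 0.00005% Triton X-100. Reaction started with 2 uM Z-FR-AMC; AMC fluorescence increase over 60 s gives rate.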
2A StopGo = High Throughput Screening for Foot and Mouth Disease Virus Antivirals. Potency, µM (doses to about 57.9 µM), inactives show at the top dose signal change, negative = less light. human cells with a luciferase reporter of 2A StopGo recoding; control for the full effect not named in the record. 410,000 tested, 1.2% active; active = well fitted falling curve with a large enough effect; inconclusive = small, poorly fitted or top-dose-only effect; inactive = no such curve, though single readings can be large or run the other way; tested in HEK293T cells; also: % is scaled to controls: 0 for no effect and ±100 for the full control effect; nearly all actives have a fitted effect of over 45% in size; luciferase light after 4 h
NS1 inh = qHTS Assay for Inhibitors of Influenza NS1 Protein Function; S. cerevisiae slowed by influenza A NS1, growth recovery by OD600; Potency, µM (doses to about 46.1 µM), for inactives: at the highest dose activity, positive = more growth; 270,000 tested, 0.4% active; also: actives are rising curves; nearly all actives have a fitted effect of over 50% in size
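Compounds were scored for reversing the slow growth caused by influenza A NS1 in S. cerevisiae, measured by optical density at 600 nm. Assay medium contained 2% galactose at pH 6.0; NS1-free yeast of the same strain were the positive control.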
Cruzain Triton = qHTS Assay for Promiscuous and Specific Inhibitors of Cruzain (with detergent). Potency, µM, inactives show max response, negative = inhibition, actives largely listed as inhibitors. AID 1478, 2009. purified cruzain, Z-FR-AMC fluorescence, 0.01% Triton. Cruzipain (Trypanosoma cruzi), P25779. 200,000 tested, 0.43% active; active = well fitted curve in the direction sought with a large enough effect; inconclusive = small, poorly fitted or top-dose-only effect, or another doubt; inactive = no such curve, though single readings can be large; an effect the other way counts as inactive or inconclusive;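 also: plate controls were neutral wells for no effect and buffer without enzyme for full effect; nearly all actives have a fitted effect of over 40% in size; top concentration of the series not given in the record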
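Sodium acetate buffer (100 mM, pH 5.5) containing 5 mM DTT and 0.01% Triton X-100 hosted 1.5 nM cruzain and test compound for 15 min at room temperature. Cleavage of 2 uM Z-FR-AMC was then tracked by fluorescence.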
RE007 growth inh = qHTS Assay for Inhibitors of the HIV-1 protein Vpr. S. pombe RE007 Vpr strain, BacTiter-Glo ATP luminescence, 24 h; control for the full effect not named in the record. AID 651644, 2012. 360,000 tested, 0.21% active. Potency, µM (highest dose often 92.2 µM), for inactives: at the highest dose activity change, negative = less growth; active = well fitted falling curve with a large enough effect; inconclusive = small, poorly fitted or top-dose-only effect; inactive = no such curve, though single readings can be large or run the other way;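 also: % is scaled to controls: 0 for no effect and ±100 for the full control effect; nearly all actives have a fitted effect of over 50% in size; the assay follows cell death caused by Vpr and the record does not say whether a fall means rescue or toxicity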
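Fission yeast RE007 carrying one integrated HIV-1 vpr copy, seeded at OD 0.01 in PMG+AL medium with 23 nL pinned compound. Grown 24 h at 30 degrees; viability read by BacTiter-Glo luminescence after 5 min.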
LASV entry inh = qHTS for Inhibitors of binding or entry into cells for Lassa Virus; Lassa virus pseudotype entry inhibition, cell reporter; control for the full effect not named in the record; Potency, µM (doses to about 37.9 µM), for the others: at the top dose activity change, negative = inhibition, usual class: inhibitors; 300,000 tested, 1.2% active; AID 540256, 2011; active means well fitted inhibition curve with a large enough effect; inconclusive means small, poorly fitted or top-dose-only effect, or effect the other way; inactive means flat fitted curve, though single readings scatter; tested in HEK293 cells; also: % is scaled to controls: 0 for no effect and ±100 for the full control effect; nearly all actives have a fitted effect of over 50% in size; luciferase read-out
Marburg entry inh = qHTS for inhibitors of binding or entry into cells for Marburg Virus; Marburg virus pseudotyped entry inhibition, cell reporter; control for the full effect not named in the record; about a third of the inactives were read at about 46 µM; Potency, µM (doses to about 37.8 µM), for inactives: at the top dose activity change, negative = inhibition, usual class: inhibitors; 300,000 tested, 1.8% active; active = well fitted inhibition curve with a large enough effect; inconclusive = small, poorly fitted or top-dose-only effect, or effect the other way; inactive = flat fitted curve, though single readings scatter; tested in HEK293 cells; about a fifth of its hits are not listed in these tables; also: % is scaled to controls: 0 for no effect and ±100 for the full control effect; luciferase read-out
SARS PLP yeast = qHTS of Yeast-based Assay for SARS-CoV PLP. Potency, µM (titrated, usually from 32.9 µM), for inactives: at the top dose activity, positive = growth rescue. S. cerevisiae expressing SARS-CoV PLpro, growth rescue; control for the full effect not named in the record. AID 485353, 2010. 330,000 tested, 0.19% active; also: 0% is about no effect; nearly all actives have a fitted effect of over 55% in size; growth read by luminescence after 48 h
* marks the source's active call; other numbers are inactive results; u = inconclusive; x = no result given; & = joins results of further samples; [ ] = dose if it differs, or a comment. Unless noted, calls follow the shape of the dose curve; as a rule, active means well fitted rising curve with a large enough effect; inconclusive means small, poorly fitted or top-dose-only effect; inactive means no such curve, though single readings can be large or run the other way. Potency is read from the fitted curve at half-maximal effect.

| compound | Cruzain inh noDet | 2A StopGo | NS1 inh | Cruzain Triton | RE007 growth inh | LASV entry inh | Marburg entry inh | SARS PLP yeast |
| --- | --- | --- | --- | --- | --- | --- | --- | --- |
| O=C1c2cc(Cl)ccc2OC2(CCNCC2)C12CC(c1ccccc1)=NO2 (centres undefined) | x | -23% | 1% | x | -10% | x | x | -3% |
| CCOC(=O)C1(Cc2ccccc2)CCN(CC2CC=CCC2)CC1 (centres undefined) | x | -22% | 2% | x | 2% | -12% | u | 1% |
| Cc1nc(C(=O)Nc2ccc(Cl)cc2Cl)nn1-c1cc(OC(C)C)c(Cl)cc1Cl | 25µM* | -5% | 24% | -0.9% | 12% | 5% | -27% | -12% |
| CCC1CCCCN1CC(=O)c1c(C)[nH]c2ccccc12 (centres undefined) | -4% | -8% | -2% | 4.8% | 4% | -2% | -17% | -3% |
| COc1ccc(OCc2nnc(SCC(=O)N3c4ccccc4Sc4ccc(Cl)cc43)o2)cc1 | u | -11% | 21% | 7.9% | -4% | u | u | -2% |
| NS(=O)(=O)c1ccc(N/N=C/c2ccccn2)c([N+](=O)[O-])c1 | x | -3% | x | x | 2% | u | u | -5% |
| CC(=O)/C(=N\Nc1ccc(Cl)cc1)Sc1nnc(-c2ccccc2)n1-c1ccccc1 | u | -8% | 0% | -5.5% | 4% | -3% | u | 25% |
| CCC(=O)Nc1ccc(N2CCC(C)CC2)cc1 | -1% | 37%[activator] | -1% | -1.3% | 13% | 5% | 16% | -4% |
| COc1cccc(/C=N/NC(=O)c2ccc(OCc3cccc(Br)c3)cc2)c1 | u | -27% | -3% | 0.3% | -19% | -4% | -26% | -14% |
| CCOC(=O)C1=C(CC)OC(N)=C(C#N)C1c1cc(OC)ccc1OC (centres undefined) | -6% | -15% | 10% | 2.7% | -5% | -4% | 9% | -2% |
| CCOc1ccc(NC(=O)CN(C)C(=O)c2ccccc2OCc2cccc(C)c2)cc1OCC | x | -24% | x | x | 21% | u | u | 3% |
| Cc1ccc2nc(/N=C(\N)NC(=O)NC3CCCCC3)nc(C)c2c1 | x | u | -8% | x | 0% | u | 5.6µM* | 0% |
| O=C(CCCC(=O)N(CC(=O)NC1CCCCC1)Cc1ccco1)Nc1ccccn1 | 5% | -7% | -9% | 0.6% | 13% | -9% | -15% | 6% |
| O=C(CSc1nnnn1Cc1ccccc1)Nc1ccc2c(c1)OCCO2 | -4% | 7% | -9% | -6.1% | 6% | 9% | 22% | -2% |
| CN(Cc1ccccc1NS(=O)(=O)c1ccc(Cl)cc1)C1CCCCC1 | x | -2% | x | x | -18% | -13%[46.1 µM] | -14%[46.1 µM] | 2% |
| Cc1cccc(NC(=O)c2ccc(OCC3CCCO3)cc2)c1C (centres undefined) | -12% | 37%[activator] | -6% | -0.1% | x | -10% | u | 3% |
| C/C(N)=C(/C#N)C(=O)COC(=O)c1ccc(NC(N)=O)cc1 | x | -7% | 2% | x | 2% | x | x | 0% |
| O=C(NC1CCCCC1)C(c1ccc(Cl)cc1)N1CCC2(CC1)OCCO2 (centres undefined) | 0% | 17% | 2% | 2.8% | 5% | 4% | -2% | 5% |
| COc1ccc(S(=O)(=O)NC2CC(=O)N(c3ccc(C)c(C)c3)C2)cc1 (centres undefined) | x | 0% | x | x | 15% | -17% | 3%[46.1 µM] | u |
| COC(=O)c1ccc(Cn2nnc3c(=O)[nH]c(C4CCCN(S(=O)(=O)c5ccccc5)C4)nc32)cc1 (centres undefined) | -3% | u | 18% | -3.2% | 12% | 20%[46.1 µM] | 18%&18%[46.1 µM] | -4% |
| O=S(=O)(Nc1ccc(OC(F)F)cc1)c1ccc(-c2ccon2)s1 | x | 14% | 3% | x | 13% | 19%[46.1 µM] | u | 0% |
| COc1cccc2sc(Nc3nc(-c4ccccn4)cs3)nc12 | u | x | -110% | -2.0% | x | x | x | -43% |
| O=C(O)c1ccccc1C1c2ccccc2Oc2ccccc21 | 6% | -22% | -11% | 0.2% | 10% | 11%[46.1 µM] | -2%[46.1 µM] | x |
| CCOC(=O)c1sc(C)c2c1NC1(CCCCCC1)NC2=O | 0% | 0% | -1% | -0.8% | 12% | 7% | u | 0% |
| COc1ccc(CNC(=O)c2cc(S(=O)(=O)N3CCCCC3)ccc2N2CCOCC2)cc1OC | x | -17% | x | x | -3% | 2% | 5% | x |
| O=C(NNC(=O)c1sccc1-n1cccc1)c1ccc(Cl)cc1 | -1% | -9% | 0% | 1.3% | -1% | 1% | -1%[46.1 µM] | 2% |
| CC(C)CCn1c(CN2CCOCC2)nc2c1c(=O)n(C)c(=O)n2C | 2% | -15% | 3% | -1.7% | 10% | x | x | 0% |
| CCCN(CC1CC1)C(=S)NC(=O)c1cc(Br)ccc1Cl | x | -12% | x | x | -6% | -34% | -34% | 5% |
| COc1ccc2oc(C(=O)OCC(=O)Nc3ccccc3)c(C)c2c1 | x | 15% | -2% | x | -15% | u | u | 1% |
| CCC(=O)NCCNC(=O)c1c(SC)nsc1SC | 0% | -15% | -2% | 9.2% | -20% | -9% | 3% | 2% |
| CCOC(=O)CCSc1nc(-c2ccccc2)cc(C(F)(F)F)n1 | 7% | -19% | 7% | -10.0% | -3% | 1% | -20%[46.1 µM] | -6% |
| O=C(OCC(=O)N1CCCc2ccccc21)c1ccc(Cl)nc1 | 9% | -10% | -11% | -1.1% | 6% | 6% | 27% | -22% |
| Cc1ccc(NC(=O)CCC(=O)NNC(=O)c2ccccc2)c(C)c1 | x | -12% | 0% | x | -4% | 2% | -19% | 1% |
| COc1ccc(NC(=O)CCCN2C(=O)C3CC=CCC3C2=O)cc1 (centres undefined) | x | 22% | 0% | x | -2% | -23% | u | 8% |
| COc1ccc(Cl)cc1C(=O)NCCS(=O)(=O)N1CCN(c2ccccc2F)CC1 | x | -9% | -22% | x | 2% | x | x | -5% |
| COC[C@H]1OC(=O)c2coc3c2[C@@]1(C)C1=C(C3=O)[C@@H]2CCC(=O)[C@@]2(C)C[C@H]1OC(C)=O | x | u | x | x | u | u | -45% | x |
| O=C(/C=C/c1ccccc1)NCCSCc1ccc(Cl)cc1 | -1% | -16% | -13% | -3.7% | 12% | -2% | 0% | 5% |
| O=C(NC1(C(F)(F)F)N=C(c2ccccc2)N(Cc2ccccc2)C1=O)c1ccc(F)cc1 (centres undefined) | 1% | -23% | x | -5.5% | x | u | u | x |
| c1ccc(-c2noc(CSc3nnnn3-c3ccccc3)n2)cc1 | -2% | -10% | -60% | 0.3% | -21% | x | x | -9% |
| CC(=NCCO)c1c(O)n(C2CCCCC2)c(=O)[nH]c1=O | 3% | -17% | -13% | 1.6% | -2% | 3% | -5% | 2% |
| O=C(Nc1ccc(C(=O)O)cc1)/C(=C/c1ccc([N+](=O)[O-])cc1)NC(=O)c1ccccc1 | x | -12% | x | x | 1% | -2% | 20%[46.1 µM] | 0% |
| O=C(/C=C/c1ccccc1)NC(NC(=S)Nc1ccc(Cl)cc1Cl)C(Cl)(Cl)Cl (centres undefined) | -4% | -25% | -1% | 3.0% | -5% | u | u | 12% |
| Cc1ccc(-c2nnn(CC(=O)O)n2)cc1 | 9% | 8% | -10% | 9.0% | -1% | -17% | 8%[46.1 µM] | 0% |
| O=c1oc(-c2ccccc2)nc2sc3c(c12)CCC3 | -3% | 48%[activator] | -1% | -7.8% | -13% | u | -2% | -25% |
| Cn1c(=O)c2sccc2n2c(CCCC(=O)Nc3ccc(F)c(F)c3)nnc12 | -13% | -29% | x | 0.3% | x | -9%[46.1 µM] | -5%[46.1 µM] | x |
| Cc1ccc(NC(=O)Nc2cnccn2)cc1C | x | 16% | -7% | x | -16% | 1%[46.1 µM] | u | -1% |
| CCn1nnc2cc(C(=O)Nc3cccc(Cl)c3C)ccc21 | -15% | 8% | x | 0.5% | x | 8%[46.1 µM] | x | x |
| CCOC(=O)c1ccc(NC(=S)Nc2cccc(N)n2)cc1 | x | 21% | -4% | x | 8% | u | -1%[46.1 µM] | 0% |
| O=C(Nc1ccc(S(=O)(=O)Nc2nccs2)cc1)c1ccc(=O)[nH]c1 | x | -6% | 10% | x | -2% | 23% | 28%[46.1 µM] | 1% |
| O=C(O)c1cc2ccccc2[nH]1 | 1% | -10%&-6% | x | -2.9% | 0% | x | x | x |
| CCc1ccccc1NC(=O)C1CCN(c2cnccn2)CC1 | 0% | -5%&-25% | -5% | -3.1% | -7% | u | u | -16% |
| CCOC(=O)c1c(-c2cccs2)csc1NC(=O)c1ccco1 | u | 36%[activator] | 11% | -3.7% | 10% | 2% | 13% | 13% |
| CC(Nc1cccc([N+](=O)[O-])c1)C(=O)Nc1ccc(S(=O)(=O)N2CCCC2)cc1 (centres undefined) | x | -11% | x | x | 4% | -1% | u | -3% |
| CN1CCN(c2ccc(S(=O)(=O)C(F)(F)F)cc2[N+](=O)[O-])CC1 | 4% | 3% | -2% | 1.0% | 13% | 6% | -8% | 21% |
| CCc1nnc(NC(=O)CSc2nnc(C3CCCCC3)n2-c2cccc(Cl)c2)s1 | 28% | -13% | -6% | -1.9% | 21% | -4% | -24% | 8% |
| COc1ccc(OCC(=O)NCc2ccc(Cl)cc2)cc1 | x | -13% | 0% | x | -4% | 26%[46.1 µM] | -1%[46.1 µM] | 3% |
| COc1ccc(N2CCN(CCCNC(=S)Nc3c(C)cccc3C)CC2)cc1 | x | -1% | x | x | -22% | 14% | -18%[46.1 µM] | -6% |
| Cc1ccc(-c2ocnc2C(=O)N2CCOCC2)cc1 | x | -20% | -1% | x | 8% | x | x | 0% |
| Cc1ccc(NC(=O)CNC(=O)c2ccco2)nc1 | x | -1% | -6% | x | -5% | x | x | 2% |

Screens (PubChem)

This is a random part of the collection; any-hit rate near 4.7%.
